A1 inh = inhibitors of the anti-apoptotic protein A1, read as caspase activation; MEF A1-2A-BIM cells, Caspase-Glo 3/7 luminescence, 3 h; percent of clofoctol response, vehicle zero; caspase activation, % (concentration not given with the values); actives 0.066% (n = 330,000);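 active = over half of replicate activation scores above 10%, or exactly half above 10 with the replicate mean above 10; inconclusive = replicate mean below 10 yet half the replicates above 10; inactive = over half of replicates below 10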;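 also: wells of about 30 µL received 50 nL stock; many hits fall short of the cut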
UCH37 DUB inh = inhibitors of human deubiquitinating enzyme UCH37 | Q9Y5K5 | purified proteasome/UCH37, Ub-AMC cleavage fluorescence | inhibition, % (concentration not given with the values) | actives 0.33% (n = 330,000);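 active = mean of two replicates above 20%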;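 also: 0% = compound-free wells with enzyme and 100% = wells lacking proteasome; stock transfer was 100 nL into about 20 µL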
Target sequence (Q9Y5K5 whole entry, looked up): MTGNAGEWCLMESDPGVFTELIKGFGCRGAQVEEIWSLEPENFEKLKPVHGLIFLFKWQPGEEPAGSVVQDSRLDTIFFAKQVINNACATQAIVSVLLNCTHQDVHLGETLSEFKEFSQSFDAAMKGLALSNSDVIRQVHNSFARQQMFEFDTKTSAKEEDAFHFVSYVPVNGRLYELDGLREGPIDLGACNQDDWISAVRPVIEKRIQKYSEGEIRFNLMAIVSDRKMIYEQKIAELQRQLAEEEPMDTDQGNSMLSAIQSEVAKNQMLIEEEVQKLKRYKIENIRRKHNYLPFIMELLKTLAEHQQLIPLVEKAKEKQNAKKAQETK
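Material: Human UCH37 enzyme supplied as purified proteasome complex | Schedule: 30 min preincubation with enzyme, 25 min cleavage at room temperature | Detection: AMC fluorescence 355/460 nm | Measure: % inhibition of Ub-AMC cleavage fluorescence | Controls: Wells without proteasome as full block, compound-free enzyme plus substrate as uninhibited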
LANA-H2B inh = blocks KSHV LANA binding to histone H2A/H2B | Q9QR71 | cell-free LANA-H2A/H2B peptide, fluorescence polarization | inhibition, % (test concentration not listed) | actives 0.6% (n = 320,000); in the data active = inhibition mostly above about 10%, no sharp cut-off; inactive = mostly below about 6.7%;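 also: stock transfer was 7.5 nL into about 10 µL; 0% = median of vehicle wells and 100% = median of positive control wells; one replicate is shown; the record names a cut of 25% in any replicate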
Vif A3G = HIV-1 Vif–A3G interaction blockers – biochemical, TR-FRET, GST-Vif 1-94, biotin-A3G peptide, dose response retest, primary screen (AID 1117319); TR-FRET GST-Vif / biotin-A3G peptide binding; higher % means a stronger effect; test concentration not given here; strong numbers were not always called active; inhibition, %, or IC50 in µM where a hit was titrated; actives 0.57% (n = 260,000);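 active = above the screen mean plus three standard deviations and confirmed in dose response; inconclusive = results disagree or hit not tested in dose response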;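 also: Vif residues 1-94 fused to GST binding biotinylated APOBEC3G peptide 110-148; 0% = full assay without inhibitor and 100% = GST in place of GST-Vif; retest series ran down from 100 µM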
B2AR ag = agonists of human beta-2 adrenergic receptor inducing internalization; response, % (concentration not given with the values); AID 504454; actives 0.43% (n = 340,000); Am2.2-beta2AR cells, FAP receptor internalization, flow cytometry; reference of the scale not given here; P07550;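 active = response above a set limit, near 3 SD of response in nonfluorescent compounds, cut at about 42% in these data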;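 also: stock transfer was 100 nL into about 11 µL; a reference agonist was the positive control; negative values mostly stem from fluorescent compounds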
E coli growth = inhibitors of Escherichia coli growth; OD600, 23 h; active compounds read low; OD600 absorbance (test concentration not listed); actives 0.21% (n = 330,000); AID 1053175;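 active = OD600 absorbance below the run mean of sample wells minus 3.6 SD, in any replicate, cut at about 0.56 in these data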;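 also: stock transfer was 300 nL into about 60 µL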
HNF4A DNA FP = change in binding of human HNF4 alpha to DNA | AID 1224865 | actives 0.3% (n = 360,000) | P41235 | activity change, % at 10 µM | HNF4a-FITC DNA binding, fluorescence polarization, 1 h; in the data active = activity change above about 30%, passing the limit was not always enough;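 also: controls were the assay level and a saturating level of protein; the project sought stronger binding though the title names inhibitors; some compounds called inactive have numbers as strong as hits; positive values seem to mean higher polarization but the record does not say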
Target sequence (P41235 whole entry, looked up): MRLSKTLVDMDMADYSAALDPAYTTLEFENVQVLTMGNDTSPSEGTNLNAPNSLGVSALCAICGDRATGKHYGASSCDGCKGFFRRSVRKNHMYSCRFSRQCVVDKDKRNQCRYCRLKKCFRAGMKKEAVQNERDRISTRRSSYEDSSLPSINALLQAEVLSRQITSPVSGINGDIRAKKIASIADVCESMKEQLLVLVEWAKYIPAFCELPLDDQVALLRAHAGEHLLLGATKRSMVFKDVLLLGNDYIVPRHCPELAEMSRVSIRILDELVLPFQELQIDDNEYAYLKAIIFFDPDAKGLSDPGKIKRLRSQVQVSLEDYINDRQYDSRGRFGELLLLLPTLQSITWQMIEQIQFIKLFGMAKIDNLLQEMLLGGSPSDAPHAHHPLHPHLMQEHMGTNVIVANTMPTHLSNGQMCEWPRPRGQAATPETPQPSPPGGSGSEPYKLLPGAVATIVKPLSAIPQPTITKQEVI
The depositor's hits bear a star; i = inactive; ? = inconclusive; . = not tested or not shown.

SMILES | A1 inh | UCH37 DUB inh | LANA-H2B inh | Vif A3G | B2AR ag | E coli growth | HNF4A DNA FP
CCCCCCc1cc2cc(C(=O)NCc3ccccc3)c(=N)oc2cc1O | -1.3 | -137.7 | -1.3 | -3.8% | -21.8 | 0.754 | 81.3
CC1(c2ccc(OC(F)F)cc2)NC(=O)N(CC(=O)Nc2ccc(S(N)(=O)=O)cc2)C1=O (stereo not drawn) | 0.5 | 5.7 | -7.1 | -2.2% | 0.3 | 0.72 | 0.7
CC1CCN(S(=O)(=O)c2ccc3c(c2)NC(=O)CS3)CC1 | -0.3 | 2.7 | 0.9 | . | 4.3 | 0.691 | -0.1
O=C1NC[C@H](c2ccccc2)N(CCc2cccc3ccccc23)C1=O | 0.4 | 1.4 | -5.0 | 3.4% | 2.6 | . | 3.0
CCOC(=O)N1CCC(N2CCN(CCC(C)C)C(CCO)C2)CC1 (stereo not drawn) | 1.3 | 3.8 | 3.0 | 29.2% | 1.8 | 0.704 | 2.9
Cc1nc2ccc(NS(=O)(=O)c3ccc(F)c(C)c3)cc2[nH]1 | -0.2 | 4.3 | 4.5 | . | -4.1 | 0.685 | 1.6
CCOC(=O)Cn1nc(C)c(NC(=O)c2ccc([N+](=O)[O-])c(C)c2)c1C | 1.0 | 1.5 | -0.9 | . | 1.2 | 0.723 | -1.3
COc1cccc(CN(C)C(=O)C23CC4CC(CC(C4)C2)C3)c1 | 0.2 | 2.9 | 1.8 | -7.4% | -2.5 | 0.701 | -2.7
COc1ccc(C(=O)NCCS(=O)(=O)NC2CCCC2)cc1 | 0.1 | 3.3 | 0.8 | -8.1% | -3.0 | 0.687 | 3.9
O=C(c1ncc[nH]1)c1cccs1 | -0.2 | 10.3 | 9.0 | 10.4% | -2.4 | 0.626 | 2.8
c1ccc(-c2cc(-c3ccccc3)ncn2)cc1 | 1.9 | 4.2 | 0.8 | . | -0.4 | 0.658 | 0.4
CCCC(=O)Nc1nnc(S(=O)(=O)N2CCCCCC2)s1 | 0.1 | 6.5 | 7.1 | . | -2.2 | 0.722 | 2.3
COc1ccccc1-c1nnc(SCC(=O)O)n1-c1ccc(C)cc1 | -0.4 | 4.3 | 5.6 | -10.8% | -1.5 | 0.651 | 3.2
COc1ccccc1NC(=O)N1CCOCC1 | 0.8 | -0.6 | -4.1 | -6.7% | -4.2 | 0.678 | -1.1
COc1ccc(OC)c(S(=O)(=O)N2CCC(C(=O)Nc3cc(C)ccc3C)CC2)c1 | 0.0 | 2.3 | -3.7 | -2.0% | 1.1 | 0.71 | 1.9
COc1cccc(C2Nc3ccc4ccccc4c3C3=C2C(=O)CC(C)(C)C3)c1OCC(=O)O (stereo not drawn) | 0.0 | i | -0.5 | . | -3.4 | 0.713 | -0.5
Cc1ccccc1OCc1occc1C(=O)Nc1cccc(-n2cnnn2)c1 | -0.2 | 7.0 | 11.0 | . | -8.8 | 0.72 | 2.3
CCOc1ccccc1N1CCN(CC(=O)N(C2CCCC2)C2CCS(=O)(=O)C2)CC1 (stereo not drawn) | 1.9 | 0.2 | -1.6 | -4.2% | -1.1 | 0.682 | -3.0
CCOC(=O)c1cc(N2CCCCC2)nc2ccccc12 | . | -26.4 | . | -6.5% | 0.8 | 0.671 | -3.2
Cc1cccc2nc(CSc3ncccc3C(=O)O)cn12 | 0.7 | 1.8 | 5.8 | -0.6% | -0.3 | 0.681 | -4.1
CCN(C(=O)COC(=O)CCc1ccccc1OC)c1c(N)n(Cc2ccccc2)c(=O)[nH]c1=O | -0.3 | 2.2 | 4.5 | -4.6% | -9.9 | 0.639 | 0.3
COc1ccc(C(C)(C)C)cc1NC(=O)CCCn1c(=O)oc2ccccc21 | -0.1 | 0.8 | 2.0 | . | -6.1 | 0.715 | 0.5
CCCOC(=O)C1[C@H]2C(=O)N(Cc3ccco3)C[C@]23C=C[C@H]1O3 (stereo partly drawn) | -0.2 | 0.5 | 1.4 | 9.8% | 12.2 | 0.701 | 3.3
CCN(CC)S(=O)(=O)c1ccc(OCC(=O)NC2CCS(=O)(=O)C2)c([N+](=O)[O-])c1 (stereo not drawn) | 1.1 | 2.6 | 0.2 | 2.0% | -4.5 | 0.708 | -0.8
Cc1ccc(S(=O)(=O)NCCCn2ccnc2)cc1 | 0.0 | 1.0 | 4.3 | ? | 4.6 | 0.691 | -0.4
The list goes on:
SMILES | A1 inh | UCH37 DUB inh | LANA-H2B inh | Vif A3G | B2AR ag | E coli growth | HNF4A DNA FP
CCC1CCCCN1CC(=O)c1c(C)[nH]c2ccccc12 (stereo not drawn) | 1.7 | 3.1 | -4.3 | -2.4% | -1.6 | 0.721 | 2.0
Cc1ccc(NC(=O)CC2S/C(=N/N=C/C=C/c3ccccc3)NC2=O)cc1Cl (stereo not drawn) | -0.3 | . | -0.6 | . | -1.4 | . | 1.7
CC1CN(Cc2nc3c(c(=O)n(C)c(=O)n3C)n2CC(=O)c2ccccc2)CC(C)O1 (stereo not drawn) | -0.8 | 2.7 | 1.8 | 2.8% | 2.2 | 0.701 | -0.6
Cc1c(C(=O)N2CCOCC2)c(S(=O)(=O)Nc2ccc(F)cc2)c(C)n1C | -0.5 | 0.5 | -5.1 | . | -1.2 | 0.672 | -1.3
CCc1ccc2oc(-c3cc(N)ccc3O)nc2c1 | -6.2 | -1.1 | -0.7 | 15.5% | 2.1 | 0.737 | 2.8
CC1CCCCN1C(=O)COc1ccc(NC(=O)c2ccco2)cc1 (stereo not drawn) | 0.1 | 4.2 | 3.6 | 6.2% | -7.3 | 0.694 | 1.2
O=C(CSc1ccc(Br)c2cccc(Cl)c12)Nc1ccc(S(=O)(=O)Nc2nccs2)cc1 | -0.7 | 3.9 | -0.4 | . | 8.5 | 0.686 | 0.4
Cc1ccc(N(C)S(=O)(=O)c2ccc(-c3cnc(C4CC4)o3)cc2)cc1 | 2.8 | 1.0 | 4.4 | -9.4% | 13.1 | 0.728 | -2.6
CC(OC(=O)[C@@H](NC(=O)c1ccco1)C(C)C)C(=O)Nc1ncc(Cl)cc1Cl (stereo partly drawn) | 0.4 | -0.3 | -0.2 | . | -0.5 | 0.716 | 2.1
O=c1cc(-c2cccc(Cl)c2)oc2cccc(O)c12 | -0.8 | 3.4 | 0.0 | . | -2.8 | 0.714 | 0.0
CCOc1ccccc1C(c1c(C)n(C)n(-c2ccccc2)c1=O)c1c(C)n(C)n(-c2ccccc2)c1=O | 1.9 | 3.1 | -0.3 | -1.2% | -3.9 | 0.698 | 0.9
C=CCNc1nnc(Sc2ncccc2[N+](=O)[O-])s1 | 0.8 | 4.3 | -2.4 | 8.8% | 3.6 | 0.72 | -1.9
O=C(CCCn1cncn1)N1CCCC(N2CCN(c3ccc(F)cc3)CC2)C1 (stereo not drawn) | 0.2 | 1.0 | 7.0 | -6.2% | -0.5 | 0.695 | -0.4
CC(C)C[C@H](NC(=O)OC(C)(C)C)C(=O)N[C@@H](CO)[C@H](O)[C@@H]1C[C@@H]1C(=O)N1CCCC1 | 1.2 | -0.4 | -0.3 | . | 2.0 | . | 0.2
CCCCN1CN(Cc2ccccc2)CNC1=S | 0.9 | 2.7 | 5.2 | 2.3% | 5.7 | 0.691 | 1.6
COC(=O)C1=C(C)NC2=C(C(=O)CC(C)(C)C2)C1c1ccccn1 (stereo not drawn) | -0.2 | -286.2 | -3.5 | 28.6% | -11.8 | 0.619 | 1.9
CC(=O)OCC1=C(C(=O)O)N2C(=O)C(NC(=O)CCn3nc(C)c(Cl)c3C)C2SC1 (stereo not drawn) | 0.2 | 4.2 | 3.1 | 29.1% | -0.8 | 0.69 | -0.3
Cc1c(Cl)ccc2c(C(=O)NCCCn3nccc3C)cc(-c3ccccn3)nc12 | -0.2 | -1.0 | -0.2 | -25.0% | 6.0 | 0.667 | 7.2
Cc1ccc(S(=O)(=O)Cc2ccc(C(=O)NCCc3ccccc3)o2)cc1 | 1.5 | -1.1 | 1.4 | . | -7.4 | 0.662 | 4.2
CCN1C(=O)[C@H]2[C@@H](c3ccc(-c4ccc(F)cc4)c(OC)c3)N3CCC[C@@]3(C(=O)OC)[C@H]2C1=O | -0.2 | -3.4 | -3.7 | . | -7.5 | . | 1.6
CCOC(=O)C1CCN(C(=O)Nc2ccc3snnc3c2)CC1 | -0.8 | -2.6 | -2.6 | 20.2% | -0.3 | 0.641 | -5.8
O=C(O)c1ccc(-c2noc(-c3ccccc3Cl)n2)cc1 | -10.6 | 0.0 | -3.2 | . | 2.2 | 0.681 | 3.4
COc1cc([N+](=O)[O-])cc2sc(NC(=O)c3c(F)cccc3F)nc12 | -0.8 | 4.7 | -0.1 | -5.3% | 1.9 | 0.684 | -1.0
CN(C)CCNC(=O)c1ccc(-c2nn(C)c(=O)c3ccccc23)cc1 | 1.9 | 4.9 | 1.9 | -5.7% | -2.2 | 0.695 | 2.3
O=[N+]([O-])c1cc(-n2cnnn2)ccc1N1CCC(Cc2ccccc2)CC1 | -0.3 | 2.2 | -5.4 | -1.4% | 20.6 | 0.632 | -4.5

One compound at a time (already shown). Order of screens: A1 inh	UCH37 DUB inh	LANA-H2B inh	Vif A3G	B2AR ag	E coli growth	HNF4A DNA FP
`Cc1ccc(S(=O)(=O)Cc2ccc(C(=O)NCCc3ccccc3)o2)cc1` is entered as 1.5	-1.1	1.4	.	-7.4	0.662	4.2
`CC1CCN(S(=O)(=O)c2ccc3c(c2)NC(=O)CS3)CC1` is entered as -0.3	2.7	0.9	.	4.3	0.691	-0.1

The list goes on:
SMILES | A1 inh | UCH37 DUB inh | LANA-H2B inh | Vif A3G | B2AR ag | E coli growth | HNF4A DNA FP
CN(CCc1ccccn1)C(=O)Nc1ccc(Cl)cc1 | 0.9 | 0.5 | 3.7 | ? | -4.9 | 0.662 | 0.2
Cc1ccc(-n2c(N)c(-c3nc4ccccc4n3C)sc2=S)cc1 | . | -3.2 | 2.0 | 0.4% | 9.3 | 0.683 | 6.4
CCn1nnnc1SCC(=O)NCc1ccco1 | 0.5 | 2.9 | -3.1 | 21.2% | -1.3 | 0.717 | 0.4
Cc1ccccc1Cn1ccc(NC(=O)c2onc(C)c2Cl)n1 | 0.2 | 2.2 | -5.6 | 6.8% | -4.6 | 0.712 | 2.2
COC(=O)Cc1ccc(NC(=O)C(c2ccccc2)c2ccccc2)cc1 | 1.1 | 2.3 | 2.0 | . | 3.2 | 0.731 | -1.0
COC(=O)[C@]1(Cc2ccccc2)N[C@H](c2ccc(-c3cccc(Cl)c3)c(OC)c2)[C@@H]2C(=O)N(C)C(=O)[C@@H]21 | . | 0.9 | . | . | 2.2 | . | 4.1
CC(C)(C)OC(=O)[C@H](CCCCN)NC(=O)c1[nH]cnc1C(=O)N[C@@H](Cc1ccccc1)C(=O)OCc1ccccc1 | -0.3 | 3.5 | 0.5 | . | 4.2 | . | 8.9
CSc1ccc(CNc2cccc3ccccc23)cc1 | -0.2 | -72.2 | -2.7 | 4.8% | 2.4 | 0.665 | 0.8
COc1ccc(C(=O)NC(=S)N(C)C2CCCCC2)cc1Br | -0.1 | 5.3 | -2.0 | . | 14.1 | 0.731 | 4.0
Cc1ccc(N(CC(=O)Nc2cccc(C)c2)S(=O)(=O)c2cccc3nonc23)cc1 | 0.5 | 1.9 | 1.3 | 7.1% | -2.4 | 0.71 | -2.5
O=S(=O)(c1ccc(-n2cnnn2)cc1)N1CCNCC1 | 0.4 | . | 8.5 | . | -2.4 | . | 0.3

Results in E coli growth and B2AR ag (three entries from above):
| compound | E coli growth | B2AR ag |
| --- | --- | --- |
| CN(CCc1ccccn1)C(=O)Nc1ccc(Cl)cc1 | 0.662 | -4.9 |
| Cc1ccccc1Cn1ccc(NC(=O)c2onc(C)c2Cl)n1 | 0.712 | -4.6 |
| O=S(=O)(c1ccc(-n2cnnn2)cc1)N1CCNCC1 | . | -2.4 |

Compound activity as filed in PubChem BioAssay.
